Bioassay records from PubChem.
N370S GC mod = inhibits or activates N370S mutant glucocerebrosidase; N370S GC spleen homogenate, 4MU-glucoside fluorescence; 0.092% of 330,000 active; Potency, µM (top dose mostly 59.4 µM), for the others: at the highest dose activity change, negative = inhibition, actives largely listed as inhibitors; AID 2101; P04062;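 note: 0% = full enzyme activity and -100% = no enzyme basal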
KAT2A inh = GCN5L2 (KAT2A) acetyltransferase inhibition. Q92830. GCN5L2 HAT assay, ThioGlo1 CoA-SH fluorescence. Potency, µM (doses to about 58.9 µM), for inactives: at the top dose activity change, negative = inhibition, usual class: inhibitors. AID 504327. 0.21% of 390,000 active
Target sequence (Q92830 whole entry, looked up): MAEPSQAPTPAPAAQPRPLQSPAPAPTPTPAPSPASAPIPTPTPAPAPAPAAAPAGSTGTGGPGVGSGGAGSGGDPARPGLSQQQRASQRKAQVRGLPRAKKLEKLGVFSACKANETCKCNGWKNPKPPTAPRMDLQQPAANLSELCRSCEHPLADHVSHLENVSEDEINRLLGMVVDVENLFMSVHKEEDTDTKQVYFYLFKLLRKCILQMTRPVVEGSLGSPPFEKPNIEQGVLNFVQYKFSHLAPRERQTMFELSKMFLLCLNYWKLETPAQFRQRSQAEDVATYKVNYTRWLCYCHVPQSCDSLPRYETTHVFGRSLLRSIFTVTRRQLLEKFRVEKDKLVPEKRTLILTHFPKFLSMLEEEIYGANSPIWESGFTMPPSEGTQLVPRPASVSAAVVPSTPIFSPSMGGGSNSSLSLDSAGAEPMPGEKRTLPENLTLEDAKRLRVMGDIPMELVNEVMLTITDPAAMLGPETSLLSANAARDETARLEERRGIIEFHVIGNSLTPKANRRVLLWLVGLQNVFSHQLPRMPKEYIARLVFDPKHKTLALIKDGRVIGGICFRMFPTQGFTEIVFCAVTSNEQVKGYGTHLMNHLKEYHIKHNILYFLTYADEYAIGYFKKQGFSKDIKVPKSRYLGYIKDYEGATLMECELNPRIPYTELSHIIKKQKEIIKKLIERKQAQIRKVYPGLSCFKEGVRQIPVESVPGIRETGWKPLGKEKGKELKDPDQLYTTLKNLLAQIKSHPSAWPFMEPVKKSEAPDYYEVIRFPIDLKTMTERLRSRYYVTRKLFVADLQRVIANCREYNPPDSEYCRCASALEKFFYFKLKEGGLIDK
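Compounds, pin-transferred from DMSO stocks, meet 20nM GCN5L2 for 15 min before the reaction begins with H3(1-25) peptide (75uM) and acetyl-CoA (70uM). Thiol-reactive ThioGlo1 reports CoA release over 20 min at room temperature.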
An asterisk follows results filed as active; ? = inconclusive; · = no result given; [ ] = dose if it differs, or a comment. Calls come from the whole dose curve; as a rule, active = well fitted curve in the direction sought with a large enough effect; inconclusive = small, poorly fitted or top-dose-only effect, or another doubt; inactive = no such curve, though single readings can be large; an effect the other way counts as inactive or inconclusive. Unless noted, % is set by controls: 0 for no effect and ±100 for the full control effect; potency is the fitted concentration of half-maximal effect. An excerpt; most or all hits stand in other tables.

Start of the data: the first 2 entries, to show the layout:
Results follow in this order: N370S GC mod, KAT2A inh
> CN(C)S(=O)(=O)c1c(Cl)cccc1Cl
 : 3%, -7%[0.501 µM]
> N/C(=N\OC(=O)N1CCOCC1)c1ccccc1
 : -1%, 2%

Main list, from the start:
Results follow in this order: N370S GC mod, KAT2A inh
> CN(C)S(=O)(=O)c1c(Cl)cccc1Cl
 : 3%, -7%[0.501 µM]
> N/C(=N\OC(=O)N1CCOCC1)c1ccccc1
 : -1%, 2%
> COc1ccccc1OCC(=O)NCCSCc1cccc(Cl)c1
 : ?, -3%
> Cc1ccc(NC(=O)c2cc(N3C(=O)C4CCCCC4C3=O)ccc2N2CCOCC2)cc1 (stereo not given)
 : ?, 0%
> CNC(=S)N(Cc1ccco1)Cc1cc2cc(OC)ccc2[nH]c1=O
 : -21%, -6%
> Cc1ccc(C)c(S(=O)(=O)NNC(=O)Nc2ccccc2Cl)c1
 : -5%, -7%
> CCCCOC(=O)C1=C(C)NC(=O)NC1c1cccc([N+](=O)[O-])c1 (stereo not given)
 : -1%, -9%
> COc1ccc(NS(=O)(=O)c2ccc(S(=O)(=O)N(C)C)cc2)cc1S(N)(=O)=O
 : -9%, -12%
> CC1CCN(c2ccc(/C=N\Nc3nncn3N)cc2[N+](=O)[O-])CC1
 : -14%, -7%
> O=C(NCc1ccncc1)c1cccc(S(=O)(=O)Nc2ccc(SC(F)F)cc2)c1
 : -15%, -7%
> COC(=O)c1ccc(C(C2C(=O)CC(C)(C)CC2=O)C2C(=O)CC(C)(C)CC2=O)cc1
 : 9%, 0%
> C1CCC(c2nn3c(-c4n[nH]c5c4CCC5)nnc3s2)CC1
 : 7%, -5%
> COc1ccc(OC(=O)Nc2ccccc2)cc1
 : 4%, 3%
> CCOc1cc(-c2nc3ccccn3c2NCC2CCCO2)ccc1O (stereo not given)
 : 3%, ?
> COc1ccc(NC(=O)CSc2nc3c(c(=O)n2-c2ccc(C)cc2)SCC3)c(OC)c1
 : 4%, -4%
> CC(=O)Nc1c(O)nc(SCc2ccc(Cl)cc2)[nH]c1=O
 : 5%, -4%
> Cc1ccc2c(cnn2C(=O)CCCC(=O)NC(C)c2ccccc2)c1 (stereo not given)
 : 1%, ?
> COc1ccc(S(=O)(=O)N2C3CCC2CC(NC(=O)C2CC2)C3)cc1 (stereo not given)
 : -9%, -2%
> CCOc1ccc(NC(=O)CC2C(=O)N(c3cccc(OC)c3)C(=O)N2C(C)C)cc1 (stereo not given)
 : 1%, -19%
> CCN(C(=O)COC(=O)C1=COCCO1)c1c(N)n(Cc2ccccc2)c(=O)[nH]c1=O
 : -6%, 2%
> Cc1ccccc1-n1nc(CO)c(C(=O)NCc2cccnc2)n1
 : ·, -8%
> N#CC1(NC(=O)COc2ccc(S(=O)(=O)N3CCCC3)cc2[N+](=O)[O-])CCCCC1
 : 0%, 0%
> Cc1ccnc(Nc2nc(-c3ccc(Cl)cc3)cs2)c1
 : 3%, ?
> Nn1c(SCC(=O)Nc2cccc(F)c2)nnc1C1CCCCC1
 : 10%, 0%
> CCOC(=O)c1[nH]c(C)c(C(=O)N2CCCC(Nc3ccc(C)c(C)c3)C2)c1C (stereo not given)
 : -1%, -5%
> CC(C)(C)n1nnnc1C(c1cccs1)N1CCN(c2ccccc2)CC1 (stereo not given)
 : 6%, -17%
> COCCNC(=O)c1cc(-c2ccccc2)nn1Cc1cc(C)no1
 : ·, -6%
> COc1ccc2cc(/C=N/NC(=O)CSCc3ccc([N+](=O)[O-])cc3)c(Cl)nc2c1
 : 5%, ?
> CCCn1c(N)c(C(=O)CN(C)CC(=O)Nc2cc(C)ccc2C)c(=O)[nH]c1=O
 : 0%, 1%
> COc1ccc(C(=O)Nc2nnc(CCS(=O)(=O)c3ccc(C)cc3)s2)cc1
 : 15%, 4%
> O=C(O)c1ccc(NS(=O)(=O)c2cc(Cl)sc2Cl)cc1
 : -13%, 0%
> COc1nnc(-c2ccc(C)c(S(=O)(=O)NCCO)c2)c2ccccc12
 : -19%, -2%
> COc1cccc(CN2C(=O)CCC2(C)C(=O)NC2CCCCCC2)c1 (stereo not given)
 : -22%, -4%
> COc1ccccc1NC(=O)C(C)OC(=O)C(C)SCC(=O)Nc1ccc(C)cc1 (stereo not given)
 : -12%, -1%
> COc1ccc(NC(=O)N2CCCCCC2)c(OC)c1
 : 7%, 4%
> CCN1CCN(C(=O)c2cc(=O)c3cc(C)ccc3o2)CC1
 : -1%, -2%
> CC1CCC2(CC1)NC(=O)N(CC(=O)Nc1cccc(C#N)c1)C2=O (stereo not given)
 : ·, 1%
> CC(C)CCNC(=O)c1cc(-c2ccncc2)nc2ccc(S(=O)(=O)N3CCOCC3)cc12
 : 11%, 5%
> Cc1ccc(NC(=O)C2C3C=CC4(O3)C2C(=O)N(CCCN2CCCCC2)C4C(=O)NC2CCCCC2)cc1C (stereo not given)
 : -5%, -10%
> O=C(c1cccc(F)c1)N1CCN(C(=O)C2CC2)CC1
 : 17%, 3%
> COc1ccc(S(=O)(=O)Nc2cccc3c2O[C@H](CN(C)C(=O)Nc2ccc4c(c2)OCO4)[C@@H](C)CN([C@H](C)CO)C3=O)cc1
 : ·, 1%
> CC(C)CCNC(=O)c1cc(-c2cccnc2)nc2ccc(S(=O)(=O)N3CCC(C)CC3)cc12
 : ·, 2%
> COCCNc1nc2nonc2nc1N(C)Cc1ccc(C)cc1
 : -4%, -2%
> Cc1coc2c(C)c3oc(=O)c(CCC(=O)N4CCCCC4)c(C)c3cc12
 : ·, -10%
> CC(=O)Nc1ccc(NC(=O)CSc2ccc(-c3cccnc3)nn2)cc1
 : -1%, -5%
> C[C@H](NC(=O)C1CC(=O)N(c2ccc3c(c2)OCO3)C1)C(=O)NC1CCCCC1 (stereo not given in full)
 : -14%, -1%
> CCCc1cc(=O)[nH]c2nnc(SCC(=O)Nc3nnc(CC)s3)n12
 : 0%, -9%
> CC(=O)c1ccc(N2CCN(C(=O)/C=C/c3ccc(S(=O)(=O)N4CCOCC4)cc3)CC2)cc1
 : -2%, 0%
> CSc1ccc(CCNC(=O)CN2C(=O)c3cccnc3Oc3ccc(Cl)cc32)cc1
 : ·, -7%
> CNC(=O)C1CCC(=O)N1Cc1ccccc1Cl (stereo not given)
 : -2%, -3%
> O=C(Cc1cccc([N+](=O)[O-])c1)NCc1nc2cccnc2n1Cc1ccc(F)cc1
 : ·, 9%
> Cc1ccnc(N2CCCC(C(=O)NC3CC3)C2)n1 (stereo not given)
 : -14%, -4%
> CCOC(=O)C1CCN(c2c(NCc3ccc(C(=O)NCCOC)cc3)c(=O)c2=O)CC1
 : 1%, 0%
> O=C(c1ccccc1N(Cc1ccccc1)S(=O)(=O)c1ccccc1)N1CCOCC1
 : ?, -16%
> NC(=O)c1ccsc1NC(=O)COC(=O)c1ccccn1
 : ·, -6%
> Cc1noc(C(=O)Nc2cccnc2)c1Cl
 : 3%, -13%
> Cc1cccc(C2(c3cccc(C)c3)CC2C(=O)Nc2ccc([N+](=O)[O-])cc2O)c1 (stereo not given)
 : -23%, -16%
> CCC(C)(C)n1nnnc1C(c1cc2cc(C)cc(C)c2[nH]c1=O)N1CCCC1 (stereo not given)
 : -6%, -2%
> COc1ccccc1NC(=O)c1ccc2c(=O)n3c(nc2c1)CCC3
 : 0%, -3%
> O=C(O)CCn1c(-c2ccccn2)nc2ccccc21
 : -1%, 0%

4 compounds drawn at random from those above, as already listed:
Results follow in this order: N370S GC mod, KAT2A inh
> COc1ccc(S(=O)(=O)Nc2cccc3c2O[C@H](CN(C)C(=O)Nc2ccc4c(c2)OCO4)[C@@H](C)CN([C@H](C)CO)C3=O)cc1
 : ·, 1%
> CCC(C)(C)n1nnnc1C(c1cc2cc(C)cc(C)c2[nH]c1=O)N1CCCC1 (stereo not given)
 : -6%, -2%
> O=C(Cc1cccc([N+](=O)[O-])c1)NCc1nc2cccnc2n1Cc1ccc(F)cc1
 : ·, 9%
> COc1ccccc1NC(=O)c1ccc2c(=O)n3c(nc2c1)CCC3
 : 0%, -3%

Remaining list, next part.
Results follow in this order: N370S GC mod, KAT2A inh
> Cc1ccc(S(=O)(=O)/N=C(\Nc2cccc(C)c2)Nc2nc(C)cc(C)n2)cc1
 : 3%, -6%
> S=C1SCN(Cc2ccco2)CN1Cc1ccco1
 : -8%, -7%
> c1ccc(-c2cnnc(N3CCCCC3)n2)cc1
 : ?, -6%
> CC[n+]1ccc(/C=C2\Sc3ccccc3N2CCCS(=O)(=O)[O-])c2ccccc21
 : -6%, 0%
> CCC(=O)N1CCCn2c1nc1ccccc12
 : 4%, -1%
> COc1ccc2c(c1)CC(C1(O)C(=O)Nc3ccccc31)C2=O (stereo not given)
 : -7%, -3%
> CCOc1ccc(NC(=O)CCC(=O)Nc2cc(OC)c(NC(=O)c3ccco3)cc2OC)cc1
 : 6%, -7%
> COCC(CN1CCN(C2=NS(=O)(=O)c3ccccc32)CC1)OC(=O)c1ccccc1 (stereo not given)
 : -1%, -2%
> COC(=O)c1[nH]c2c(c1C)C(=O)CC(c1cc(OC)ccc1OC)C2 (stereo not given)
 : 5%, -4%
> Cc1ccc(C(=O)NCc2ccc3c(c2)OCO3)cc1S(=O)(=O)N1CCOCC1
 : 2%, -8%
> COc1ccccc1N1CCN(C(=S)NC(=O)/C=C/c2ccc(F)cc2)CC1
 : -3%, -3%
> CC1CCN(C(=O)c2cc3c(=O)n(C)c4cc(Cl)ccc4c3s2)CC1
 : ·, 1%
> CC1(C)CC(=O)C(C=NCc2cccnc2)=C(O)C1
 : -29%, 0%
> O=C(/C=C/c1ccncc1)c1ccc2c(c1)OCCO2
 : -11%, -1%
> O=C(CSCc1c(Cl)cccc1Cl)NCc1ccco1
 : 14%, -1%
> O=c1cc(O)c(-c2ccc(Cl)cc2)c(Cl)[nH]1
 : -2%, -6%
> CCCC/C(C)=N/NC(=O)NC1CCCCC1
 : 8%, 0%
> O=C(NN=C1CCCCCC1)c1c[nH]c2ccccc12
 : 2%, 1%
> Cc1ccc(NC(=O)c2ccccc2N(C)S(C)(=O)=O)cc1C
 : ·, 0%
> COC(=O)C1=C(NC(=O)c2ccccc2[N+](=O)[O-])CCS1
 : -2%, -6%
> Cc1ccc(NC(=O)COC(=O)CN2C(=O)COc3ccccc32)cc1
 : 11%, 10%
> CC[C@@]1(C(=O)OC)N[C@H](CN(C)C(=O)Nc2ccc(C(F)(F)F)cc2)[C@@H]2C(=O)N(Cc3ccccc3)C(=O)[C@@H]21
 : ·, -8%
> CCOC(=O)Cc1csc(NC(=O)c2ccc(NC(C)=O)cc2)n1
 : -15%, -10%
> CN1CCN(C(=O)c2ccc(OCCOc3ccccc3)cc2)CC1
 : 2%, 0%
> Cc1ccc(NC(=O)C(C)Sc2nc(-c3ccccc3)c(C#N)c(=O)[nH]2)c(C)c1 (stereo not given)
 : ·, 0%
> CCCCCCNC(=O)c1c[nH]c2ccc(S(=O)(=O)N(C)c3ccc(C(C)C)cc3)cc2c1=O
 : ·, -10%
> CN=C(Nc1cc(C)nn1-c1ccccc1)c1ccc(F)cc1
 : -3%, 2%
> CCC(CC)C(=O)Nc1nnc(-c2cccs2)s1
 : 22%, -25%
> CC(=O)Nc1ccc(S(=O)(=O)NCc2cccnc2)cc1
 : 13%, 0%
> O=C(OC1CCOC1=O)c1ccc2ccccc2n1 (stereo not given)
 : -10%, -2%
> Cc1cc(Cl)ccc1C(=O)C1CCCN(C(=O)c2cccnc2C)C1 (stereo not given)
 : -2%, 25%
> CCOC(=O)CC1=CC(=O)Nc2ccccc2N1
 : -8%, -4%
> CCCNC(=O)c1cccc(NC(=O)C(C)C)c1
 : 9%, -4%
> COc1ccc(S(=O)(=O)N2CCN3CCCC3C2)cc1 (stereo not given)
 : -4%, 1%
> COc1ccc(CCNC(=S)N2CCN(S(=O)(=O)c3ccccc3)CC2)cc1
 : -6%, -8%
> Cn1c(Cn2c(=O)sc3ccccc32)nnc1SCC(=O)NC1CCCCC1
 : 2%, -2%
> NC(=O)c1cc2c(s1)-c1cc(Cl)ccc1SC2
 : -7%, -20%
> CCn1c(C)nc2cc(C(=O)N/N=C/c3ccccc3C)ccc21
 : -3%, -9%
> CCC(C)(C)C1CCC2(CC1)NC(=O)N(CC(=O)N(C)Cc1ccc3c(c1)OCCO3)C2=O (stereo not given)
 : ·, -3%
> CCN(c1ccccc1)S(=O)(=O)c1ccc(OC)c(NC(=O)COc2ccc(C(C)=O)cc2)c1
 : -7%, -2%
> Cc1sc(NC(=O)CSc2nnc(COc3ccc(Cl)cc3)n2C)c(C#N)c1C
 : -4%, -1%
> CCC(=O)c1ccc(N2CCN(C(=O)c3cccs3)CC2)c(F)c1
 : -18%, -8%
> CCOC(=O)[C@@H]1[C@H]2COc3ccc(Br)cc3[C@H]2N2C(=O)N(c3ccc(Cl)cc3)C(=O)[C@]12C
 : ·, -8%
> O=C(O)C1=C(C(=O)N2CCN(C(=O)c3ccco3)CC2)CCCC1
 : 7%, 2%
> Cc1cc(C)nc(Nc2nc(C)c3cc4c(cc3n2)OCO4)n1
 : 4%, -3%
> O=C1C(=Cc2ccco2)C(=O)c2ccccc21
 : 2%, -4%
> COC(=O)c1c(NC(=O)COc2ccc(C(C)C)cc2)sc2c1CCCC2
 : ·, -4%
> CCOC(=O)c1ccc(NC(=O)N2CCc3ccccc32)cc1
 : 4%, -1%
> Cc1cc(C)c2c(N)c(C(=O)NC3CCCC3)sc2n1
 : 4%, -11%
> CCN(CC)c1ccc(C=Nc2cccc(S(=O)(=O)N3CCOCC3)c2)c(O)c1
 : ·, -10%
> CCCCCC(=O)Nc1cccc(C2=NOC3(C2)C[C@@H](C(N)=O)N(C(=O)c2cc([N+](=O)[O-])cc([N+](=O)[O-])c2C)C3)c1 (stereo not given in full)
 : -15%, 18%
> CCCSc1nnc(-c2ccccc2N)c(=O)[nH]1
 : 9%, -2%
